# gsp antagonist: antagonizes gsp, the McCune-Albright syndrome mutation; gsp-mutant cells, cAMP HTRF, 30 min; control for the full effect not named in the record; AID 624288; Potency, µM (titrated, usually from 76.9 µM), without a hit: at the top dose activity change, negative = inhibition, hits mostly inhibitors; hit rate 0.4% among 340,000; active = falling curve of any shape with a large fitted effect; inconclusive = falling curve, mostly with a smaller effect; inactive = flat or rising curve; cell line not stated here;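 note: intracellular cAMP measured with PDE inhibitor Ro 20-1724 present during compound exposure; potency is the fitted concentration of half-maximal effect; % is set by controls: 0 for no effect and ±100 for the full control effect; nearly all actives have a fitted effect of over 65% in size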
#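 Cells, 2000/well, grown 16–24 h in DMEM 10% FBS with 0.5 mg/ml G418, then compounds plus […] (300 uM addition stock), 30 min at 37C. cAMP read by HTRF (cAMP-d2 and anti-cAMP antibody-K in lysis buffer) after 30 min RT.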
# ClpP mod: qHTS Assay for Activators of ClpP | purified B. subtilis ClpP, FRET peptide cleavage, 20 min | Potency, µM (doses to about 57.5 µM), for the others: at the highest dose activity change, negative = active | hit rate 1.9% among 340,000 | ATP-dependent Clp protease proteolytic subunit (Bacillus subtilis (strain 168)), P80244; active = well fitted falling curve with a large enough effect; inconclusive = small, poorly fitted or top-dose-only effect; inactive = no such curve, though single readings can be large or run the other way; note: potency is the fitted concentration of half-maximal effect; the source files actives as falling curves though it sought activators and does not explain the sign; nearly all actives have a fitted effect of over 65% in size; many hits overshoot -100%
# Target sequence (P80244 whole entry, looked up): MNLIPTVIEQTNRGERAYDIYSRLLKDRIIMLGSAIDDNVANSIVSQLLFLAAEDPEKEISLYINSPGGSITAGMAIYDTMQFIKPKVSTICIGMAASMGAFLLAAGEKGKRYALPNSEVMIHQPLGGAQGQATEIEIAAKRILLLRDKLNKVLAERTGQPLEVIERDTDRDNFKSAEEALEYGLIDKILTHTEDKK
#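 Buffer: 100 mM Tris/HCl pH8, 100 mM KCl, 0.05% low protease BSA, 2.5% glycerol, 0.01% Tween-20. ClpP 10 microg/mL final; 20 min RT; delta FRET normalized to ADEP and DMSO controls.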
# TRPV1 PAM: enhances activation of the human vanilloid receptor TRPV1 | hit rate 0.02% among 320,000 | TRPV1-expressing cells, Fluo-8 calcium influx, capsaicin EC20 potentiation; host cell line not named in the record; control for the full effect not named in the record | Q8NER1 | potentiation, % at 8.33 µM | AID 540277; active means potentiation above 80%; inconclusive means 30% to 80%; inactive means below 30%; note: 0% is about no effect
#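 Fluo-8 calcium influx in TRPV1-expressing cells, kinetic read (ex 480/em 520 nm). Compound added and read 3 min for agonist activity, followed by capsaicin at EC20 final and 2 min further read for enhancement.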
# gsp ag: activates gsp, the McCune-Albright syndrome mutation | gsp mutant cells, cAMP HTRF, 30 min; control for the full effect not named in the record | Potency, µM (top dose mostly 76.9 µM), without a hit: at the highest dose activation (cAMP increase), usual class: activators | hit rate 0.13% among 340,000; active = well fitted activation curve with a large enough effect; inconclusive = small, poorly fitted or top-dose-only effect, or another doubt; inactive = no such curve, though single readings can be large or run the other way; cell line not stated here;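 note: phosphodiesterase inhibitor Ro 20-1724 added with compounds to block cAMP breakdown; potency is the fitted concentration of half-maximal effect; nearly all actives have a fitted effect of over 60% in size; about a fifth of the inactives were tested at one dose only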
#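 Cells stably selected in G418 were plated at 2000/well, grown 16-24 hr, then given compounds in DMSO with the PDE inhibitor […] (300 uM solution added) for 30 min at 37C; cAMP was read by HTRF.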
# Menin-MLL FL inh: displaces fluorescein MLL peptide from human menin; Fluorescence polarization, fluorescein-MLL peptide displacement from menin; FP activity change, % at 61.4 µM; 290,000 tested, under 10 active; AID 1766; inconclusive = falling polarisation curve, or a change in total fluorescence; inactive = total fluorescence flat and polarisation flat or rising; no compound was filed as active; the % refers to the polarisation; negative = inhibition;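 note: % of control where 0% means no effect; inhibitors lower the polarisation; unlabelled MLL peptide was the positive control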
# Sfp inh: blocks B. subtilis Sfp PPTase activity | hit rate 3.5% among 310,000 | Q9F4F7 | Potency, µM, for inactives: max response, negative = inhibition, hits mostly inhibitors | Biochemical Sfp PPTase activity, qHTS; active = well fitted inhibition curve with a large enough effect; inconclusive = small, poorly fitted or top-dose-only effect, or another doubt; inactive = no such curve, though single readings can be large or run the other way;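 note: the enzyme is Sfp with the accession as filed and its product quenches rhodamine fluorescence; potency is the fitted concentration of half-maximal effect; 0% = enzyme reaction without inhibitor and -100% = no enzyme wells; top concentration of the series not given in the record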
#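 Fluorescence-quenching assay with 15 nM Sfp, 5 uM rhodamine-CoA and 12.5 uM BHQ-2-labelled ybbR peptide in pH 7.6 Hepes/MgCl2 buffer. Enzyme was pre-incubated with compound for 15 min at room temperature. Rate was taken from the 30-min fluorescence change (525/598 nm).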
# TRPML1 blocker: inhibitors of human TRPML1 channel. Q9GZU1. TRPML1-inducible cells, Ca2+ dye fluorescence, FDSS; hits give low values; inhibition of EC80 agonist-evoked calcium signal. activity change, negative = inhibition, % (test concentration not listed). hit rate 0.02% among 390,000; in the data active means activity change below about -50%; inconclusive means about -30% to -50%; inactive means above about -30%;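 note: stimulus is agonist 54-4 at its EC80 concentration; % is set by controls: 0 for no effect and ±100 for the full control effect; compound concentration not given in the record; the text of the record puts the active cut at -80%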
# Target sequence (Q9GZU1 whole entry, looked up): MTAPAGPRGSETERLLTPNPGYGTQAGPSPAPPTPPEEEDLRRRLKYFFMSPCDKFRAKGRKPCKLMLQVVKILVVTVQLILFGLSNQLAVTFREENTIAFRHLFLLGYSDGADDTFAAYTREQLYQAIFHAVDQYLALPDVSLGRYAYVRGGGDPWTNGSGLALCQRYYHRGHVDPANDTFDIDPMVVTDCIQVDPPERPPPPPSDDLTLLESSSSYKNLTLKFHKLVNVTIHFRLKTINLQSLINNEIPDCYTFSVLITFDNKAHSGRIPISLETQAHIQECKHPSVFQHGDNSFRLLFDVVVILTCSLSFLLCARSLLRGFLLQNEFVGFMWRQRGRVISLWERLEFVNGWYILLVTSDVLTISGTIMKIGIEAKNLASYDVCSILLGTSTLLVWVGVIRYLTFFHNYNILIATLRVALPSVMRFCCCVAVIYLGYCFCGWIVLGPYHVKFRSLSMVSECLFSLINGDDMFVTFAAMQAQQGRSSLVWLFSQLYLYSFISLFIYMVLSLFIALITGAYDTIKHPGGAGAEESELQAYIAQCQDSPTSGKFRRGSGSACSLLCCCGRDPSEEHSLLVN
#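 Calcium fluorescence in TRPML1-DL cells induced overnight with Tet: a 110 s read after compound pin addition, then a 110 s antagonist read after challenge with 54-4 at 4 uM final (EC80).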
# Starred values were filed as active, the others as inactive; u = inconclusive; x = not tested or not shown; & = joins results of further samples; [ ] = remark or other dose.
SMILES,gsp antagonist,ClpP mod,TRPV1 PAM,gsp ag,Menin-MLL FL inh,Sfp inh,TRPML1 blocker
Cc1ccc(C(=O)N2C(=O)C(c3ccccc3)Oc3ccccc32)cc1 (stereo not given),-32%,-3.1%,5,-11%[15.4 µM],3.5,12%,23
COc1cc(NS(=O)(=O)c2ccc(NC(=O)c3cccnc3)cc2)ncn1,7%,-0.2%,-8,u,-1.5,17%,10
Cc1ccc(NC(=O)CSc2n[nH]c(-c3ccncc3)n2)c(C)c1,-13%,x,9,-5%,-4.3,8%,-6
O=C(Cn1cc(C(F)(F)F)ccc1=O)OCC(=O)c1ccc[nH]1,6%,2.0%,x,-9%[15.4 µM],x,x,33
Cc1cc(C)c(S(=O)(=O)c2cccc(Cl)c2)c(Cl)n1,-6%,x,7,-8%[15.4 µM],-2.1,5%,15
CCOc1ccc(/C=N/Nc2ccc(C(F)(F)F)cc2[N+](=O)[O-])cc1O,2%,-2.1%,0,-37%[inhibitor],-1.8,-5%,53
O=C(c1ccc(S(=O)(=O)NCc2ccco2)cc1)N1CCN(Cc2ccccc2F)CC1,8%,-3.7%,5,-72%,x,x,-23
O=C(CN1C(=O)CCC1=O)Nc1cccc2c1C(=O)NC2=O,10%,4.4%,-5,15%,-3.4,-5%,8
Cn1ncc([N+](=O)[O-])c1C(=O)N1CCCCCC1,19%,2.4%,2,-17%,-3.7,9%,4
O=C1NCCN(Cc2ccc(Cl)c(F)c2)C1CC(=O)N1CCCCO1 (stereo not given),9%,-4.3%,-3,2%,-5.7,-15%,21
COc1ccc(N=c2scc(-c3ccc(S(=O)(=O)N4CCOCC4)cc3)n2CCCO)cc1,x,x,-6,x,3.4,6%,x
c1ccc(Nc2nc(-c3cccnc3)cs2)nc1,-1%,-1.1%,-27,6%[15.4 µM],-0.3,10%,7
Cc1cccc(NC(=O)CCCN2C(=O)c3cccc4cccc(c34)C2=O)c1,0%,23%,11,4%,-2.8,-7%,3
CN(C(=O)c1cccc(C#CC(C)(C)O)c1)C1CCCN(Cc2ccccc2F)C1 (stereo not given),1%,2.3%,-7,0%,1.3,7%,-8
CCCc1cc2c(cc1NC(=O)c1ccccc1C)OCO2,5%,-12%,-2,-13%,0.6,-5%,-1
CCOc1ccc2c(c1)[nH]c(=S)n2C,-2%,0.6%,3,u,3.0,18µM*,x
Cc1cc(C)c(S(=O)(=O)Nc2nnc(C3CCCCC3)s2)c(C)c1,-33%,1.7%,10,-12%,0.1,5%,11
COc1ccc(NC(=O)c2cnn3c(C(F)(F)F)cc(-c4ccco4)nc23)cc1OC,-2%,-0.7%,-1,4%,1.2,13%,8
CN(c1ncc(C(F)(F)F)cc1Cl)n1cc(C(N)=O)c2ccccc2c1=O,-12%,1.4%,-4,-36%[inhibitor],-0.6,-1%,-1
CCCCN(C(=O)c1ccc(C#N)cc1)c1c(N)n(CCC)c(=O)[nH]c1=O,9%,x,0,5%,-12,2%,12
CSc1nc(N)nc(SCC(=O)OC(C)C)c1C#N,2%,-0.2%,-3,3%,0.4,1%,13
C=CCNC(=S)N/N=C1\CCS(=O)(=O)c2ccccc21,0%,-0.4%,19,2%,-17,-29%,8
CCN1CCN(C(=O)CCNC(=O)Cn2ccc3ccccc3c2=O)CC1,1%,-27%,-1,-50%[inhibitor],2.2,16%,-3
CCOc1ccc(NS(=O)(=O)c2ccc(NC(=O)C3CC3)cc2)cc1,-12%,1.2%,-13,4%[15.4 µM],x,0%,0
O=C1Nc2ccc(S(=O)(=O)N3CCOCC3)c3cccc1c23,8%,u,9,0%,0.8,-12%,9
COc1ccc(/C=C/C(=O)OC(C)C(=O)c2ccccc2)cc1OC (stereo not given),-13%,0.2%,-2,-1%,x,x,8
COc1ccc(CC(=O)NCc2ccc3c(c2)OCO3)cc1,6%,-1.4%,-25,14%,0.2,5%,4
COc1ccc(C2c3ccc4ccccc4c3Oc3ncn(CCCN(C)C)c(=N)c32)cc1 (stereo not given),4%,x,8,22%,-2.4,-11%,-19
COc1ccc(-c2noc(CCC(=O)NCCCN3CCN(c4ccc(F)cc4)CC3)n2)cc1,-1%,0.1%,22,-25%,1.6,7%,-1
CCNC(=S)NNC(=O)c1cc(-c2cc(C)ccc2C)nc2ccccc12,-31%,23%,10,-53%[inhibitor],-1.3,8%,-7
CCOC(=O)C[C@H]1c2ccc(C(F)(F)F)cc2S(=O)(=O)N1C(C)(C)C,1%,-3.1%&1.1%,x,x,x,x,-14
CCc1ccc(N2CC(C(=O)N3CCN(S(=O)(=O)c4cccc(F)c4)CC3)CC2=O)cc1 (stereo not given),x,-0.6%,x,-26%,x,x,-1
COC(=O)c1ccc(Cl)c(NC(=O)CSc2nnc(-c3ccncc3)o2)c1,8%,-1.4%,-2,-3%,-2.4,9%,-11
CCC1CCCCN1C(=O)CSc1nc(C)cc(C)n1 (stereo not given),0%,x,19,u,-1.2,25%,-15
O=C(CCC(=O)c1ccc(F)cc1)NN1C(=O)NC2(CCCCC2)C1=O,-2%,-0.4%,10,-21%,x,x,-5
COc1ccc(OC)c(/C=N/NC(=O)c2ccc(Cn3cc([N+](=O)[O-])cn3)o2)c1,-7%,54%,7,-7%,4.8,5%,-19
Cc1csc(NC(=O)c2cc3c(s2)CCCCC3)n1,14%,-7.9%,-19,-9%,3.7,6%,-14
Cc1cccc(N(C(=O)c2ccco2)C(C(=O)NC2CCCC2)c2cccnc2)c1C (stereo not given),3%,x,24,8%,-5.0,-3%,27
Cc1c(C)c2c(OCC(=O)NCc3ccncc3)cc3c(c2oc1=O)CCC(C)(C)O3,-10%,4.5%,-19,x,-2.9,-1%,x
Cc1nnc(SCC(=O)NC(C)(C)C)n1NCc1c(F)cccc1Cl,6%,x,0,3%[15.4 µM],-1.4,14%,-7
Cc1cccc(S(=O)(=O)Nc2ccc(S(=O)(=O)Nc3nccs3)cc2)c1,9%,-1.3%,x,13%,x,x,9
CCC(C)(C)NC(=O)CN(C(=O)CNS(=O)(=O)c1ccc(F)cc1)c1ccc2c(c1)OCCO2,5%,-0.5%,15,7%[15.4 µM],-3.2,4%,-11
COc1cc(/C=C/c2c([N+](=O)[O-])c(=O)n(C)c(=O)n2C)cc(OC)c1OC,6%,5.7%,3,u,-4.7,15%,-11
Cc1cc(=O)oc2cc(OC(=O)c3cncc(Br)c3)ccc12,13%,-23%,-3,-5%[15.4 µM],-0.2,15%,-8
COCc1nnc(NC(=O)CCS(=O)(=O)c2ccccc2)s1,8%,x,0,6%[15.4 µM],0.4,u,-2
N#C/C(=C\c1cc2c(cc1Br)OCO2)c1ccc(C(=O)O)cc1,u,-0.8%,-24,3%,5.6,11%,12
Cc1ccc2sc(NC(=O)C3CC3)nc2c1C,-12%,-0.8%,-12,24%,2.8,-1%,18
COc1cccc(CNC(=O)Cn2ccc([N+](=O)[O-])n2)c1,0%,-2.0%,-5,-27%,3.1,9%,x
Cc1cccc(-n2c(O)c(C=Nc3ccccc3O)c3ccccc3c2=O)n1,u,x,11,21%[15.4 µM],u,u,4
CN(C)/C=C(\C#N)C(=O)Nc1ccc(O)cc1F,8%,x,2,-7%[15.4 µM],-2.3,23%,38
COc1ccccc1N1CCN(C2CCN(S(=O)(=O)c3ccc(NC(C)=O)cc3)CC2)CC1,-8%,x,-1,10%,-0.5,13%,17
O=c1cc(C(F)(F)F)[nH]c(=S)n1-c1ccccc1,-8%,-0.6%,28,18%[15.4 µM],1.5,35µM*,-9
Cc1cccc(OCCCC(=O)Nc2ccc(S(=O)(=O)Nc3onc(C)c3C)cc2)c1C,0%,0.8%,10,u,1.8,9%,4
CC1SC(c2ccccc2)N(CC(O)c2ccc([N+](=O)[O-])cc2)C1=O (stereo not given),-17%,0.4%,21,2%,-9.6,-10%,11
CCCCn1nc2cc(C(=O)NC[C@@H]3CCCO3)ccc2c1OCC,3%,4.1%,5,x,-3.6,10%,-15
COc1cccc(CNC(=O)c2ccccc2N)c1,6%,5.6µM*,6,u,3.7,16%,-12
CN1CCN(CCCNC(=O)c2ccc(NC(=O)C3=CSCCO3)cc2)CC1,7%,-1.4%,3,-1%,x,7%,8
O=C(CN1CCN(C(=O)c2ccco2)CC1)Nc1ccc(F)cc1F,3%,0.4%,7,26%,1.1,4%,-3
C/C(=N/NC(=O)CC(=O)N/N=C(\C)c1ccc([N+](=O)[O-])cc1)c1ccc([N+](=O)[O-])cc1,7%,x,6,-2%,3.0,21%,-8
Cc1cc(C)n2nc(CC(=O)NC3CCCCCC3)nc2n1,14%,1.0%,-7,-15%,3.1,-7%,6
# More records
SMILES,gsp antagonist,ClpP mod,TRPV1 PAM,gsp ag,Menin-MLL FL inh,Sfp inh,TRPML1 blocker
Cc1ccc(NC(=O)CCCC(=O)O)c(Br)c1,7%,-1.5%,8,2%,0.6,18%,4
Cc1ccc(/C=N/NC(=O)c2cc3c(ccc4ccccc43)o2)o1,-8%,3.4%,-20,-26%,-2.1,12%,-3
Cc1cccc(NC(=O)/C(=C\c2ccc([N+](=O)[O-])o2)NC(=O)c2ccc(Cl)cc2)c1,-1%,-1.7%,8,-40%[inhibitor],4.6,12%,10
C=CCNC(=S)N1CCC(C(=O)c2ccc(Cl)cc2)CC1,u,-4.1%,-37,-2%,-1.7,17%,x
C[C@H]1[C@@H](c2ccccc2)Oc2ccc(Cl)cc2S(=O)(=O)N1Cc1ccc(F)cc1F,-4%,-2.8%,x,x,x,x,54
CCN1C2=C(C(=O)CCC2)C(c2ccc(O)c(Br)c2)C2=C1CCCC2=O,-8%,-26%,20,0%,-12,2%,-4
O=C(Nc1ccccc1C(F)(F)F)N1CCC(n2c(=O)[nH]c3ccccc32)CC1,-1%,-0.4%,5,-1%,-1.2,9%,0
COc1ccc(-n2c(N)c(C(=O)Nc3c(C)n(C)n(-c4ccccc4)c3=O)c3nc4ccccc4nc32)cc1,-12%,x,-1,4%[15.4 µM],-0.5,-4%,-11
CCOc1ncccc1C(=O)OC(C)C(=O)NC(=O)NC1CCCCC1 (stereo not given),7%,x,-9,6.3µM*,-2.5,-6%,-4
Cc1cc(C)n2ncc(S(=O)(=O)c3ccccc3)c2n1,-3%,4.4%,4,u,-0.8,8%,24

# Assay outcomes: PubChem, National Center for Advancing Translational Sciences (NCATS)
